CtBP-E1A inh: CtBP/E1A binding inhibition; AlphaScreen GST-E1A/His-CtBP binding, 1536-well; stronger effect = lower value; control for the full effect not named in the record; activity change, % (test concentration not listed); actives 0.49% (n = 340,000); in the data active means activity change below about -65%; inconclusive means about -30% to -65%; inactive means above about -30%; also: % is scaled to controls: 0 for no effect and ±100 for the full control effect; compound concentration not given in the record
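GST-E1A and His-tagged CtBP (125 nM each as 5X stock) were preincubated with pin-transferred compound for 2 h at 37 °C in the dark, then glutathione donor and nickel acceptor beads were added for 1 h before AlphaScreen reading.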
Six1-Eya2 inh: Six1/Eya2 interaction inhibition; activity change, % (concentration not given with the values); Q15475+O00167; actives 0.56% (n = 360,000); AlphaScreen GST-Six1/His-Eya2 binding, biochemical; stronger effect = lower value; control for the full effect not named in the record; in the data active = activity change below about -65%; inconclusive = about -30% to -65%; inactive = above about -30%; also: % is scaled to controls: 0 for no effect and ±100 for the full control effect
Target sequence (O00167 whole entry, looked up): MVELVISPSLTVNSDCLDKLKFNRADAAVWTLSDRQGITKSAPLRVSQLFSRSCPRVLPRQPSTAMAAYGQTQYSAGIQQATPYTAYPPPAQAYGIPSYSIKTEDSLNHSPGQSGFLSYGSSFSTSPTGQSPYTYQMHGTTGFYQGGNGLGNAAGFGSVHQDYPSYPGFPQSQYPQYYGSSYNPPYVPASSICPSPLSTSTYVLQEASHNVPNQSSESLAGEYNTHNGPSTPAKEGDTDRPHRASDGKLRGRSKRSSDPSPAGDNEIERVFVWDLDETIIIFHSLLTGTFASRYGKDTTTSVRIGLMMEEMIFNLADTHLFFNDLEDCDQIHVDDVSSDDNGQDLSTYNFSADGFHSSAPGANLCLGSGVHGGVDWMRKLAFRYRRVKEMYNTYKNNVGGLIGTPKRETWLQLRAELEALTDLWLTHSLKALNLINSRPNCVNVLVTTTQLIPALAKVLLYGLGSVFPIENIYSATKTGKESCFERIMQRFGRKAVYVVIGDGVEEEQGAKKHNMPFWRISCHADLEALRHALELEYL
Target sequence (Q15475 whole entry, looked up): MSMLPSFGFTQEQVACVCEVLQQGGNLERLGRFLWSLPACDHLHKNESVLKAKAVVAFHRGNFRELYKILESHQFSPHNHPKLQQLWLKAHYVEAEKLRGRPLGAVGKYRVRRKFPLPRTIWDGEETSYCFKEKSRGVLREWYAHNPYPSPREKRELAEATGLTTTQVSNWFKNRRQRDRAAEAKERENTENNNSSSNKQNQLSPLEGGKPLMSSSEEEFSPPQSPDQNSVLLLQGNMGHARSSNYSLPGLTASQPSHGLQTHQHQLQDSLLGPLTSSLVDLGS
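Homogeneous AlphaScreen proximity assay pairing GST-Six1 with His-tagged Eya2 (added as 5X mix: 250 nM and 500 nM) in 50 mM Tris pH 8.0, 300 mM NaCl, 1 mM TCEP. Glutathione donor and nickel acceptor beads; 1 h, 37 °C, dark.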
D2 ag: agonists of human D2 dopamine receptor (beta-arrestin); P14416; DiscoveRx PathHunter D2 beta-arrestin, luminescence, 90 min; 100% = 57 uM dopamine signal; activation, % (no concentration beside the values); actives 0.084% (n = 360,000); in the data active = activation above about 40%; inconclusive = about 15% to 40%; inactive = below about 15%; also: compound concentration not given in the record; the text of the record calls up to 30% inactive
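Agonist mode: compounds alone added to overnight-plated D2 PathHunter cells for 90 min at 37 C, with 57 uM final dopamine (EC100) defining full response. Beta-arrestin recruitment detected by chemiluminescent reagent, read after 1 h at ambient temperature.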
PINK1 modulator: changes PINK1 expression. Potency, µM (highest dose often 76.6 µM), for inactives: at the top dose activation (PINK1 increase), most hits filed as activators. actives 0.2% (n = 410,000). PINK1 immunofluorescence, high-content cytometry, 24 h. AID 624263; active = well fitted activation curve with a large enough effect; inconclusive = small, poorly fitted or top-dose-only effect; inactive = flat fitted curve, though single readings scatter; cell line not stated here;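 also: potency is read from the fitted curve at half-maximal effect; % of control where 0% means no effect; nearly all actives have a fitted effect of over 65% in size; a mitochondrial uncoupler was the plate control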
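Readout is PINK1 immunofluorescence, quantified alongside mitochondrial, cell and nuclear markers by laser-scanning microplate cytometry. Cells from a stable line were exposed to compound titrations (5 concentrations) for 24 hours, with CCCP controls.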
TRPML1 inh: human mucolipin-1 channel inhibition | Q9GZU1 | activity change, negative = inhibition, % (test concentration not listed) | actives 0.02% (n = 390,000) | AID 624415 | TRPML1-inducible cells, Ca2+ dye fluorescence, FDSS; stronger effect = lower value; inhibition of EC80 agonist-evoked calcium signal; in the data active means activity change below about -50%; inconclusive means about -30% to -50%; inactive means above about -30%;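 also: stimulus is agonist 54-4 at its EC80 concentration; % is scaled to controls: 0 for no effect and ±100 for the full control effect; compound concentration not given in the record; the text of the record puts the active cut at -80%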
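Tet-induced TRPML1-DL cells loaded with Ca8 no-wash calcium dye were read kinetically on FDSS. Compound addition was followed by EC80 agonist 54-4 (4 uM final); inhibition was read over 110 s.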
TRPML1 agonist: human mucolipin-1 channel agonism; TRPML1-expressing cells, Ca2+ dye fluorescence, FDSS; host cell line not named in the record; reference of the full effect not given here; activation, % (no concentration beside the values); AID 624414; actives 0.12% (n = 410,000); in the data active = activation above about 50%; inconclusive = about 30% to 50%; inactive = below about 30%; also: 0% is about no effect; the text of the record puts the active cut at 80%
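Cells: TRPML1-DL, 1X Tet inducer, ~16 h at 37 degrees C/5% CO2. Dye: ABD Ca8 no-wash + quencher, 45-90 min RT. Read: 10 s baseline, compound add, 110 s agonist phase; 54-4 EC80 (4uM final), 110 s antagonist phase.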
An asterisk follows results filed as active; ? = inconclusive; · = no result given; & = joins results of further samples; [ ] = dose if it differs, or a comment. Compounds were not picked by outcome. About 1% of those tested had a hit in this group.

# | SMILES | CtBP-E1A inh | Six1-Eya2 inh | D2 ag
1 | O=C(COc1ccccc1)Nc1cccc(-c2cn3cccnc3n2)c1 | -15 | -15 | -0.4
2 | Cc1cc(C)n2c(SC(C)C(=O)NC3(C#N)CCCCC3)nnc2n1 (centres undefined) | 1 | -13 | -3.0
3 | Cc1ccc(-n2nc3c(c2NC(=O)c2ccc(OC(C)C)cc2)CS(=O)C3)cc1 (centres undefined) | -11 | -10 | -1.9
4 | Cc1cc(C)cc(C(=O)NCC(=O)OCC(=O)c2cc(C)n(CC(F)(F)F)c2C)c1 | 0 | 10 | 2.7
5 | COC(=O)c1cc(OC)c(OC)cc1NC(=S)Nc1cc(Cl)ccc1OC | -2 | -9 | -4.1
6 | COc1cccc2cc(S(=O)(=O)c3ccc(F)c(C)c3)c(=O)oc12 | · | · | ·
7 | COc1cc(OC)c(/C=N/NC(=O)c2ccc([N+](=O)[O-])cc2)cc1Br | 0 | -1 | -0.5
8 | COc1ccc(CN2CCNC(=O)C2CC(=O)N(C)CC2CCOCC2)cc1C (centres undefined) | -1 | 4 | -2.9
9 | Cc1cc(S(=O)(=O)NCc2ccc3c(c2)OCO3)ccc1F | · | 4 | 1.9
10 | Cc1cc(NC(=O)CCN2C(=O)c3ccccc3C2=O)no1 | 4 | 1 | -1.6
11 | COc1cccc(C(CC(=O)NCC2CCCO2)NS(=O)(=O)c2ccc(C)cc2)c1OC (centres undefined) | 2 | 3 | -0.9
12 | Fc1ccccc1CNC(=S)Nc1ccc(Cl)cc1 | 9 | 3 | 2.3

# | PINK1 modulator | TRPML1 inh | TRPML1 agonist
1 | 0.8%&0.6% | 17&4 | 0.0&-0.6
2 | 0.0% | 13 | 0.3
3 | -1.2% | -3 | 1.1
4 | 2.5% | 1 | 0.0
5 | 4.4% | 9 | 0.7
6 | 0.5% | -3 | 0.2
7 | -1.5%[38.3 µM] | 18 | 0.2
8 | -1.0% | 10 | -0.1
9 | 0.1% | 24 | -0.6
10 | -2.5%[38.3 µM] | 35 | -0.7
11 | -0.2% | -6 | -0.7
12 | ? | 16 | -0.7

Going on with the list.
# | SMILES | CtBP-E1A inh | Six1-Eya2 inh | D2 ag
13 | CCCC1(c2ccccc2)NC(=O)N(CC(=O)c2[nH]c(C)c(C(=O)OCC)c2C)C1=O (centres undefined) | -10 | -22 | 3.2
14 | O=C(NCCCn1ccnc1)C1CC(c2cccc(Br)c2)=NO1 (centres undefined) | 10 | -2 | -3.3
15 | CCn1c(SCC(=O)c2ccc(O)c(O)c2)nnc1-c1ccccc1OC | -1 | -10 | 0.2
16 | Cc1nc(Nc2ccc(Cl)c(Cl)c2)sc1C(/C=C/c1ccc2c(c1)OCO2)=NNc1ccc([N+](=O)[O-])cc1[N+](=O)[O-] | 4 | -4 | -0.5
17 | Cn1c(NCCO)nc2c1c(=O)n(Cc1cccc(F)c1)c(=O)n2C | · | · | ·
18 | CCOC(=O)CC1COCCN1C(=O)c1ccc2oc(Cc3ccccc3)nc2c1 (centres undefined) | 7 | 2 | -2.2
19 | COc1ccc(N2CCN(C(=O)C3=NNC(=O)CC3)CC2)cc1 | · | -20 | 2.0
20 | CCOc1ccc2ccccc2c1C(=O)N1CCN(c2ccccc2)CC1 | -11 | -2 | 0.1
21 | O=C(O)C1CCC(CNCc2ccncc2)CC1 (centres undefined) | 7 | 1 | -0.8
22 | N#CCCN(C(=O)Nc1ccc(Cl)c(Cl)c1)C1CCCCC1 | -9 | -1 | -2.7
23 | Cc1ccc2c(c1)c1c(n2CC(O)CN2CCC(C)CC2)CCCC1 (centres undefined) | · | ? | 1.4
24 | CCOC(=O)C1=C(C)N(C)C(=S)NC1c1ccc(Cl)cc1Cl (centres undefined) | -12 | -16 | -1.7

# | PINK1 modulator | TRPML1 inh | TRPML1 agonist
13 | 0.8% | -1 | 6.4
14 | -1.3%[38.3 µM] | 9 | -0.5
15 | -1.7% | 12 | 1.1
16 | -0.2% | 4 | -0.3
17 | 0.5% | 2 | -0.8
18 | 2.4% | 15 | -0.2
19 | 0.5% | -15 | -0.5
20 | 3.4%[38.3 µM] | 16 | -0.4
21 | 0.6% | 26 | 0.8
22 | 1.0% | 10 | 0.4
23 | 1.1% | 0 | 0.2
24 | 1.0% | -12 | -0.1

(more compounds)
# | SMILES | CtBP-E1A inh | Six1-Eya2 inh | D2 ag
25 | CCNc1nc(NC(C)CC)nc(ON=C(C)C)n1 (centres undefined) | 3 | 6 | 2.7
26 | O=C(NC1CCCCCC1)c1ccc(CS(=O)c2cccc(Cl)c2)o1 (centres undefined) | · | · | ·
27 | COc1ccc(-c2oc3c(c2C(=O)OCCCO)C(OCCO)CCC3)cc1 (centres undefined) | 0 | 20 | ·
28 | COc1ccc(NC(=O)CSc2nc(O)c(C/C=C/c3ccccc3)c(=O)[nH]2)cc1 | · | · | ·
29 | CC(=O)c1cccc(N2Cc3ccccc3C2=NC(=O)CCl)c1 | 4 | 6 | -0.7
30 | CN(C(=O)COC(=O)c1ccc[nH]c1=O)C1CCCCC1 | · | 2 | -3.7
31 | COc1ccc(CCNC(=O)C2CC(c3c(Cl)cccc3Cl)=NO2)cc1 (centres undefined) | 6 | 0 | -0.6
32 | COc1ccc2c(c1)O[C@H](c1ccc3c(c1)OCO3)[C@@H](OC(=O)N[C@H]1CCCc3ccccc31)C2=O | -10 | -11 | -2.2
33 | CCN(Cc1ccccc1)C(=O)CCS(=O)(=O)c1cc2c(cc1Cl)NC(=O)CO2 | -8 | 0 | -0.7
34 | Cc1ccc(-n2nnnc2CNC(=O)C(C)(C)C)cc1C | · | · | ·
35 | CC(C)NC(=O)CN(Cc1ccc2c(c1)OCO2)C(=O)CCC(=O)Nc1ccccn1 | -12 | 19 | -1.1
36 | N#CC(c1ccccc1)N(CCCCl)C(=O)c1ccccc1 (centres undefined) | · | 7 | -3.1

# | PINK1 modulator | TRPML1 inh | TRPML1 agonist
25 | 0.7% | -8 | 0.2
26 | -0.3% | -18 | 1.0
27 | 0.8% | · | -0.9
28 | 0.4% | -6 | 0.0
29 | -1.2% | 5 | 2.7
30 | 1.4% | 24 | 0.8
31 | -0.3% | -15 | 1.1
32 | -0.2% | -9 | -0.5
33 | 4.0%&-0.3% | 3&4 | -0.3&0.2
34 | -0.1% | 10 | -0.2
35 | -0.5% | 11 | 1.9
36 | 0.9% | 11 | 1.1

Structural class: those above with a nitro group on carbon
# | SMILES | CtBP-E1A inh | Six1-Eya2 inh | D2 ag
7 | COc1cc(OC)c(/C=N/NC(=O)c2ccc([N+](=O)[O-])cc2)cc1Br | 0 | -1 | -0.5
16 | Cc1nc(Nc2ccc(Cl)c(Cl)c2)sc1C(/C=C/c1ccc2c(c1)OCO2)=NNc1ccc([N+](=O)[O-])cc1[N+](=O)[O-] | 4 | -4 | -0.5

# | PINK1 modulator | TRPML1 inh | TRPML1 agonist
7 | -1.5%[38.3 µM] | 18 | 0.2
16 | -0.2% | 4 | -0.3

Further results follow.
# | SMILES | CtBP-E1A inh | Six1-Eya2 inh | D2 ag
37 | Cc1noc(C)c1CSCC(=O)Nc1cc(S(=O)(=O)N2CCCCC2)ccc1OC(C)C | 2 | -11 | -0.4
38 | COCCNC(=S)N1CCN(Cc2ccc3c(c2)OCO3)CC1 | -1 | -4 | 4.2
39 | Cc1ccccc1CCNC(=O)c1cc2cc(S(=O)(=O)N3CCCCC3)ccc2n1C | · | · | ·
40 | COC(=O)C(CC(=O)c1ccc(Br)cc1)n1cccn1 (centres undefined) | 4 | 5 | 5.9
41 | Cc1ccc(NC(=O)CSc2nc3[nH]ncc3c(=O)[nH]2)c(C)c1 | -2 | 5 | -5.0
42 | COCCN1Cc2cccc(C(=O)Nc3ccc(S(=O)(=O)N4CCCCCC4)cc3)c2C1=O | -1 | 0 | 1.4
43 | COc1ccc(CN2C(=O)C(Cc3ccccc3)Nc3ncnc(N4CCN(c5ccccc5)CC4)c32)cc1 (centres undefined) | -17 | -23 | -14
44 | COc1ccc2nc(NC(=O)C3CCCN(S(=O)(=O)c4cccs4)C3)sc2c1 (centres undefined) | -11 | -27 | -2.0
45 | CCOC(=O)C1CCCN(S(=O)(=O)c2ccc(Cl)nc2)C1 (centres undefined) | 1 | -2 | 3.5
46 | O=C(c1ccc2c(c1)N(Cc1ccc(Cl)cc1)C(=O)c1ccccc1S2=O)N1CCCCC1 (centres undefined) | · | · | ·
47 | COC(=O)c1ccccc1NC(=O)c1cc[n+](C)cc1 | 26 | 26 | -2.8
48 | COc1ccccc1-c1cncc(NC(C)=O)n1 | 5 | 3 | -3.9

# | PINK1 modulator | TRPML1 inh | TRPML1 agonist
37 | 4.4% | -7 | 3.9
38 | -0.2% | 4 | -0.3
39 | 0.1% | 23 | 2.8
40 | -1.1% | -10 | 0.2
41 | -1.4% | 15 | -0.4
42 | 15% | -15 | 1.3
43 | -0.1% | -11 | 0.5
44 | 1.0% | -10 | 1.3
45 | 2.0% | 3 | -1.2
46 | 0.2% | 0 | -0.9
47 | 0.3% | 10 | 0.4
48 | -0.4% | · | -0.9

Next structures:
# | SMILES | CtBP-E1A inh | Six1-Eya2 inh | D2 ag
49 | Cc1cccc(C(=O)Nc2nnc(COc3ccccc3)s2)c1 | · | -1 | 3.5
50 | CSc1n[nH]c2nc3c(c(=O)n12)C1(CCCCC1)Cc1ccccc1-3 | -1 | -5 | -1.1
51 | O=C(O)C1CCN(C(=O)CCc2ccccc2)CC1 | 5 | 2 | -0.1
52 | CCCCN(C(=O)CN1C(=O)C2CC=CCC2C1=O)c1c(N)n(CCC)c(=O)[nH]c1=O (centres undefined) | -1 | 8 | 2.2
53 | Cc1ccc(CN2CCN(CCCc3ccccc3)CC2CCO)cc1 (centres undefined) | -2 | -11 | -1.2
54 | CCOc1ccccc1Nc1nnc(SCc2ccc(C(=O)OC)o2)s1 | 3 | -4 | -1.7
55 | Cc1cccc(NC(=O)c2ccc(F)c(S(=O)(=O)NCc3ccc4c(c3)OCO4)c2)c1 | · | · | ·
56 | CN1C(=S)SC2CS(=O)(=O)CC21 (centres undefined) | 9 | 11 | -2.1
57 | COc1cc(C)c2c(c1C=O)Oc1c(c(C)c(O)c3c1C(O)OC3=O)OC2=O (centres undefined) | -4 | ? | -3.2
58 | O=C(CCCc1nc2ccccc2s1)NCc1ccc(F)cc1 | -14 | 2 | -7.8

# | PINK1 modulator | TRPML1 inh | TRPML1 agonist
49 | 8.2% | 19 | 2.0
50 | 0.6% | 6 | -1.2
51 | -1.4% | 4 | -0.5
52 | · | 7 | -0.4
53 | 3.5% | 3 | -0.6
54 | 7.0% | -10 | 3.6
55 | -0.7% | -2 | 2.4
56 | -0.5% | 4 | -0.1
57 | -0.2%&1.0% | · | ·
58 | -0.6% | 8 | -0.2

Results in sequence from above.
PINK1 modulator for entries 46–57 → 0.2%, 0.3%, -0.4%, 8.2%, 0.6%, -1.4%, ·, 3.5%, 7.0%, -0.7%, -0.5%, -0.2%&1.0%

Screens (PubChem BioAssay)
